NPYLR7 ag = agonists of mosquito NPYLR7 receptor, primary screen, cell-based, Aedes aegypti, calcium fluorescence, mosquito biting behavior; 270,000 compounds, 0.15% hits; HEK293T NPYLR7/Galpha15, GCaMP6s calcium fluorescence; activation, % at 10 µM; Aedes aegypti neuropeptide Y-like receptor 7 (NPYLR7); in the data active = activation above about 40%;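 note: 0% = vehicle and 100% = reference agonist at the receptor; some compounds past the cut are filed as inactive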
NPYLR7 ag max-min = also measured in NPYLR7 ag; calls as there; activation, %; measured here: Max-Min RFU normalised activation; some inactives read as strong as hits;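 span of the calcium signal over five minutes; 0% = vehicle and 100% = native peptide agonist; compound fluorescence can raise it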
Numbers without * were called inactive; & = joins results of further samples. Not all compounds are listed; rates above refer to the full screens.

Results follow in this order: NPYLR7 ag, NPYLR7 ag max-min
> c1ccc2[nH]c(CCNC3CCN(c4ccc5c(c4)OCO5)CC3)nc2c1
  -4, -4
> Cc1ccc(C2(O)CCN(c3nc(C(N)=O)cs3)CC2)nc1
  7, 4
> Cc1ccccc1COc1cccc2ccc(N3CCC(C(N)=O)CC3)nc12
  2, -1
> COCCn1cc(NC(=O)NCc2cccnc2)c2ccccc21
  11, 6
> COc1ccc(-n2c(-c3ccccc3)cc(C(=O)N3CCN(C(=O)c4ccc5c(c4)OCO5)CC3)c2C)cc1OC
  -5, 1
> O=C(NCCNC(=O)[C@H]1CCCN1C(=O)COCc1ccccc1)c1ccc(F)cc1
  1, 8
> COc1ccc2c(CN3CCC(OCc4cccnc4)CC3)[nH]nc2c1
  -5, 3
> O=C(Nc1ccc(C(=O)N2CCCCC2)c(Cl)c1)c1ccccn1
  8, 6
> Cc1ccc(NC2CCCN(C(=O)c3n[nH]c4ccccc34)C2)cc1C (centres undefined)
  4&0, 3&-3
> CCSc1nc2ncc3c(=O)n(-c4ccc(C)c(C)c4)ccc3n2n1
  4, 9
> COc1ccc(-c2cc(C(=O)Nc3cc(C)on3)c3ccccc3n2)cc1OC
  21, 12
> CC(C)OCP(=O)(c1ccccc1)c1ccccc1
  1, 2
> O=C(c1scc2c1OCCO2)N1CCCC1c1ccccn1 (centres undefined)
  -3, -4
> CCc1ccc(C(=O)O)cc1S(=O)(=O)N(C)c1ccccc1
  1, -4
> Cc1cnn(CC2CCNCC2)c1
  6, 8
> O=C(O)C1CC=CCC1C(=O)NNc1ncnc2ccccc12 (centres undefined)
  19, 32
> COc1ccc2[nH]c3c(c2c1)CCN(C(=O)c1cccc(OC(C)=O)c1C)C3c1ccc(COC(C)=O)o1 (centres undefined)
  -9, -11
> Cn1ccc(NS(=O)(=O)c2cc(Br)ccc2Br)n1
  11, 15
> Cc1ccc(S(=O)(=O)Nc2ccc(Br)cc2)cc1C
  3, 2
> N#Cc1ccc(Nc2nnc(-c3cc4c(ccc5ccccc54)oc3=O)s2)cc1
  4, 9
> CSc1ccc(CNn2nnnc2N)cc1
  -9, -15
> COc1ccc(C(CCN(C)C)OC(=O)Nc2ccc(C(=O)N3CCc4ccccc43)cc2)cc1 (centres undefined)
  0, 15
> CC1CNc2ccccc2N(Cc2ccccc2Cl)C1=O (centres undefined)
  -3, -4
> CC(NC(=O)N1CCN(S(=O)(=O)c2ccc(Cl)s2)CC1)c1ccc(F)cc1 (centres undefined)
  0, 9
> N#Cc1ccccc1N=Nc1c(-c2ccccc2)[nH]n(-c2ccccc2)c1=O
  -1, -8
> O=C(CCC(=O)N1CCc2ccccc2C1)NCCc1ccccn1
  -2, -8
> Cc1nc(N)c(C#N)c(-c2ccco2)c1C
  4, 12
> Cc1cc(C)cc(N2CC(C)Cn3c2nc2c3c(=O)n(CC(=O)OCc3ccccc3)c(=O)n2C)c1 (centres undefined)
  12, 7
> FC(F)(F)c1cccc(N2CCC(N=CN3CCOCC3)=N2)c1
  -4, -9
> CCOC(=O)Cn1c2c(c3ccccc31)C[C@H]1C[C@@H]2[C@@H](OC)CN1Cc1ccco1
  18, 16

Single values from the results shown:
Under NPYLR7 ag max-min, CC(C)OCP(=O)(c1ccccc1)c1ccccc1 shows 2
Under NPYLR7 ag max-min, c1ccc2[nH]c(CCNC3CCN(c4ccc5c(c4)OCO5)CC3)nc2c1 shows -4

New compounds follow
Results follow in this order: NPYLR7 ag, NPYLR7 ag max-min
> Nc1ncccc1CNCC1(O)CCCN(CC2CC2)C1=O (centres undefined)
  4, 3
> Cc1ccc(-n2c(=O)[nH]c3c(C(N)=O)nc(-c4ccccc4[N+](=O)[O-])nc32)cc1C
  21, 9
> CCOC(=O)C=C(O)C(=O)OCC
  7, 9
> O=C(c1sccc1-n1cnnn1)N1CCCC1C(O)C(F)(F)F (centres undefined)
  3, 1
> CCN1CCN(CC(=O)N2CCC(CCC(=O)NCc3ccc(F)cc3)CC2)CC1
  17&3, 10&-7
> CC(=O)Nc1ccc(CNc2nc(NC(C)C)nc3cc(-c4ccccc4)sc23)cc1
  6, 1
> OC(CN1CCOCC1)CN(Cc1cccc(Cl)c1)CC1CC(c2ccccc2F)=NO1 (centres undefined)
  -4, 2
> Cc1cc(C)nc(NS(=O)(=O)c2ccc(N=Cc3ccc([N+](=O)[O-])cc3)cc2)n1
  -3, -8
> N#Cc1ccc(NC(=O)CCS(=O)(=O)C2CCCC2)nc1
  7, 4
> COc1cccc(-c2n[nH]c3c2CN(C(=O)C2(C)CC(C)=NO2)CC3)c1 (centres undefined)
  5, 4
> Cc1cnc(C(=O)N2CCOC(COc3ccc(F)cc3)C2)cn1 (centres undefined)
  12, 9
> Cc1noc(C)c1C1CCCN1Cc1ccc(-n2cncn2)cc1 (centres undefined)
  3, 1
> COc1ccc(-n2c(C)cn3c4c(=O)n(CCN5CCCCC5)c(=O)n(C)c4nc23)c(OC)c1
  5, 0
> Cc1cc(C)n(-c2ccc(-n3ccnc3-c3ccc(CO)o3)cc2)n1
  -5, -8
> O=C(c1ccccc1Oc1ccccc1)N1CCOC2(CNCCOC2)C1 (centres undefined)
  11, 8
> COCc1nc(C)nc(N2CCN(C(=O)c3cccs3)CC2)c1Cc1cc(C)ccc1C
  9, 20
> CCCc1nc(N2CCN(C(=O)COCc3ccccc3)CC2)c2c(C)nn(-c3ccc(F)cc3)c2n1
  -19, -13
> Cc1c(F)cccc1S(=O)(=O)Nc1ccc(C(C)(C)C(=O)O)cc1
  1, -9
> Cc1cc(C(F)(F)F)nc(CCNC(=O)c2cn(Cc3ccccc3F)nn2)n1
  16, 1
> CCOc1ccccc1NC(=O)CC(=O)N1CC=CC1C(C)C (centres undefined)
  11, 10
> COCCOC(=O)C1=C(C)NC(=S)NC1c1ccc(OC)cc1 (centres undefined)
  2, -3
> Cc1sc2ccc(Cl)cc2c1S(=O)(=O)N1Cc2ccccc2C[C@H]1C(N)=O
  4, 3
> Cc1cc(Oc2ccc([N+](=O)[O-])cc2)nc(SCc2ccccc2Cl)n1
  19, 14
> O=c1nc(SCc2cccnc2)c2c(n1Cc1ccccn1)CCC2
  -9, -6
> COCCNc1ccc2nnc(CCNC(=O)c3ccccc3)n2n1
  6, -3
> CCCc1cnc(C)nc1-c1cc(N)nc2[nH]ccc12
  2, -1
> O=C1COc2c(cc(C(F)(F)F)cc2NC(=O)NCCc2cccc(Cl)c2)N1
  0, -4
> CN(C)C(=O)Cc1ccccc1NC(=O)NCCCn1ccnc1
  1, 1
> Cc1ccc2nc(C)n(C3CCN(C(=O)Cc4nc(C)sc4C)CC3)c2c1
  7, 18
> COc1ccc(N2C(=O)CSC2c2ccc(C(C)(C)C)cc2)cc1OC (centres undefined)
  -2, -7
> Cc1cccc(C)c1N1C[C@@H](CN2CCN(CC(=O)O)CC2)[C@H](C(C)C)S1(=O)=O
  6, 14
> COc1cc(NC(=O)c2oc3ccc(OC)cc3c2C)cc(OC)c1
  -1, -3
> CNS(=O)(=O)Cc1ccccc1CNC(=O)c1cccc(S(=O)(=O)N2CCCCC2)c1
  11, 10
> COc1ccc(C(=O)N2CCNCC2C(=O)N2CCOCC2)cc1Cl (centres undefined)
  9, 5
> Cc1cc(C(=O)N2CCC2(C)C(=O)O)ccc1F (centres undefined)
  0, -6
> CCc1noc(CC)c1CNC(=O)Nc1ccc2nc(C)oc2c1
  2, 8
> COc1ccc(-n2c(SCc3ccc(C(=O)Nc4ccc(OC)c(OC)c4)cc3)nnc2-c2cccc(OC)c2)cc1
  14, 23
> COCCC(=O)N1CCC(Oc2ccc(C(=O)N(C)Cc3ccsc3)cc2)CC1
  18, 7
> CC1CCCC(NC(=O)CCc2nc3cc(S(=O)(=O)N(C)C)ccc3n2C)C1C (centres undefined)
  0, -1
> Cc1cc(C(=O)Nc2ccccc2Sc2c(C)n[nH]c2C)n[nH]1
  -5, -8
> CN1CCCN(Cc2cnc3c(-c4ccccc4)cnn3c2)CC1
  0, -1
> CCOc1ccc(C(=O)Nc2cc(OC)ccc2OC)cc1[N+](=O)[O-]
  -7, -12
> CCc1ccc2nc(N3CC[C@H](CO)[C@@H](O)C3)cc(C)c2c1
  0, -5
> CCNC(=O)N(Cc1cccc(C(F)(F)F)c1)CC1CC(c2ccc(N(C)C)cc2)=NO1 (centres undefined)
  23, 28
> CCc1sc(-c2nnc(COc3ccc([N+](=O)[O-])cc3)o2)cc1C
  9, 13
> O=S(=O)(C1=Cc2ccccc2CC1)N1CCN(Cc2nc3ccccc3s2)CC1
  0, 6
> Cc1ccccc1S(=O)(=O)NC(=O)C1(c2cccc(Cl)c2)CC1
  8, 7
> Cc1c(C(=O)OCc2ccccc2Cl)nnn1-c1ccccc1
  -13, -19
> CCOC(=O)c1cccnc1Oc1cccc(NC(=O)CSc2ccc(C(F)(F)F)cn2)c1
  12, 10
> COc1ccc(CN(Cc2nc(C(=O)NC(C)C)co2)C(C)c2ccccc2)c(OC)c1 (centres undefined)
  1, 19
> N#Cc1ccc(I)c(C(F)(F)F)c1
  2, 1
> Cc1cc(O)c(C(c2cccnc2)c2c(O)cc(C)n(C)c2=O)c(=O)n1C
  5, 8
> CCOC(=O)C1CCN(C(=O)c2ccc(CSc3nc(COC)cc(N4CCN(c5ccc(OC)cc5)CC4)n3)cc2)CC1
  1, 7
> Cc1cc(C(=O)N(C)Cc2ccccn2)ccc1NC(=O)c1ccco1
  17, 8
> COc1ccc(NC(=O)Cn2c3ccc(F)cc3c3ncn(Cc4ccccc4)c(=O)c32)cc1OC
  -1, -6
> Cc1ccc(-n2nc(-c3ccccc3)cc2C(=O)NCc2cccc(C(F)(F)F)c2)c(C)c1
  -5, 6
> CC(C)(C)c1ccc(C2SCCN2C(=O)c2cccc(C(F)(F)F)c2)cc1 (centres undefined)
  5, 7
> COC(=O)NC1CCN(c2ccccc2C(=O)N2CCN(c3ccc(Cl)cc3)CC2)CC1
  -3, -2
> C#CCN(CC(=O)NCc1ccc(C)c(F)c1)c1nccs1
  -2, -5
> CCCCc1ncc(CN2CCN(C(=O)c3ccccc3OC)CC2)[nH]1
  5, 5

One compound at a time, as listed above.
Record of `CCc1ccc2nc(N3CC[C@H](CO)[C@@H](O)C3)cc(C)c2c1` : NPYLR7 ag = 0; NPYLR7 ag max-min = -5
Record of `COc1cc(NC(=O)c2oc3ccc(OC)cc3c2C)cc(OC)c1` : NPYLR7 ag = -1; NPYLR7 ag max-min = -3

The list continues:
Results follow in this order: NPYLR7 ag, NPYLR7 ag max-min
> COC(=O)C1=C(C)N(C)C(C)=C(C(=O)OC)C1c1ccc(Cl)c([N+](=O)[O-])c1
  1, 2
> COc1cc2nc(CSc3nnc(C4CC4)n3C3CC3)[nH]c(=O)c2cc1OC
  -4&24, 7&17
> Cc1ccc(-n2c(SCc3ccc(C(=O)N4CCCC4)cc3)nnc2-c2ccc([N+](=O)[O-])cc2)cc1
  -14, -2
> CN(Cc1ccccc1)C(=O)Cn1cnc2ccc(Cl)cc2c1=O
  23, 16
> Cc1ccc(NC(=O)CCC(=O)N2CCc3ccccc3C2)cc1
  0, -5
> c1ccc(C(c2ccccc2)c2noc(CN3CCC(c4ccncc4)CC3)n2)cc1
  2, -1
> Cc1ccc(Nc2nnc(-c3cc4cc(Br)ccc4oc3=O)s2)cc1
  2, 0
> CCCn1c(N2CCN(Cc3cc(C)ccc3C)CC2)nc2c1c(=O)[nH]c(=O)n2C
  -1, 6
> c1csc(C2CCCN2c2ncnc3c2oc2ccccc23)c1 (centres undefined)
  0, 17
> CC(N)=C(C#N)C(=O)Cn1ncc(Cl)c(Cl)c1=O
  0, -3
> COc1ccccc1-c1cc(CC(C)C)nc(C#N)c1N
  -4, 11
> CC(C)CC(Cc1cccc(Br)c1)C(=O)NCC(=O)N1CCCCC1 (centres undefined)
  -1, -3
> CCOC(=O)c1c(-c2ccc(C)o2)csc1NC(=O)c1ccc2c(c1)OCCO2
  -5, -10
> CCC(C)N(Cc1c(-c2ccccc2)noc1N1CCOCC1)C(=O)c1cccc(OC)c1 (centres undefined)
  5, 9
> COc1cc2c(cc1CN1CCCN(CC3CC3)C(C(C)C)C1)OCO2 (centres undefined)
  0, -1
> CCN(CC)C(=O)C1CCCN(C(=O)c2cc(COc3cccc(OC)c3)on2)C1 (centres undefined)
  -2, -6
> CSc1ccc(COc2coc(CN3CCN(C(=O)c4scc(S(=O)(=O)C(C)C)c4Cl)CC3)cc2=O)cc1
  1, -5
> COc1cccc(Cn2c(=O)c(C(=O)NC3CC3)nn(-c3ccccc3)c2=O)c1
  11, 15
> CCOc1ccc2ccccc2c1C(=O)Nc1cc(C)nn1-c1nc(C)cc(=O)[nH]1
  -3, -5
> CC(NC(=O)Cc1ccc(Cl)cc1Cl)c1ccc(F)cc1F (centres undefined)
  -5, -5
> CCCc1[nH]n(-c2cccc(Cl)c2)c(=O)c1C1=C([n+]2ccccc2)C(=O)N(c2ccc(F)cc2)C1=O
  5, 3
> CCONC(=O)c1nc(CC)n(-c2c(Cl)cccc2Cl)n1
  7, 2
> CCCOC(=O)c1ccc(NC2=NS(=O)(=O)c3ccccc32)cc1
  4, 3
> COc1cccc(/C=C2\Oc3cc(OCC(=O)OC(C)C)ccc3C2=O)c1
  -1, 4
> Cc1ccc(NC(=O)c2cccc(OCc3cccs3)c2)nc1
  2, 2

Another view of part of the listing above:
Structure: CCOc1ccc2ccccc2c1C(=O)Nc1cc(C)nn1-c1nc(C)cc(=O)[nH]1
  NPYLR7 ag: -3	NPYLR7 ag max-min: -5
Structure: CCC(C)N(Cc1c(-c2ccccc2)noc1N1CCOCC1)C(=O)c1cccc(OC)c1 (centres undefined)
  NPYLR7 ag: 5	NPYLR7 ag max-min: 9
Structure: c1ccc(C(c2ccccc2)c2noc(CN3CCC(c4ccncc4)CC3)n2)cc1
  NPYLR7 ag: 2	NPYLR7 ag max-min: -1
Structure: CC(NC(=O)Cc1ccc(Cl)cc1Cl)c1ccc(F)cc1F (centres undefined)
  NPYLR7 ag: -5	NPYLR7 ag max-min: -5

Assay outcomes (PubChem)
